# Compound activity from PubChem BioAssay.
# NPYLR7 ag: activates Aedes aegypti NPYLR7 receptor | activation, % at 10 µM | HEK293T NPYLR7/Galpha15, GCaMP6s calcium fluorescence | 270,000 tested, 0.15% active; in the data active = activation above about 40%;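 also: 0% = vehicle and 100% = reference agonist at the receptor; some compounds past the cut are filed as inactive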
# NPYLR7 ag max-min: further read-out of NPYLR7 ag, marked with its call; activation, %; measured here: Max-Min RFU normalised activation; some inactives read as strong as hits;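 span of the calcium signal over five minutes; 0% = vehicle and 100% = native peptide agonist; compound fluorescence can raise it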
# * = called active by the depositor; & = joins results of further samples. This is a subset, so the mix of outcomes need not match the whole.
SMILES,NPYLR7 ag,NPYLR7 ag max-min
COc1cccc(CN2CCCC3(CCN(C(=O)c4cccnc4OC)C3)C2=O)c1 (stereo unspecified),19.4,4.8
Cc1cc(C)n(-c2ccc(N3CCN(C(=O)C4CCCCC4)CC3)nn2)n1,-3.8,-9.3
COc1ccc([N+](=O)[O-])cc1N1CCCCC1=O,-1.1,5.3
COc1cccc(CC(=O)N(Cc2ccccc2)Cc2nc3cc(Cl)ccc3o2)c1,3.6,-1.5
CC(c1ccncc1)N1CCN(c2ccc(S(N)(=O)=O)cc2)CC1 (stereo unspecified),12.1,7.2
CN(Cc1ccc(N(C)C)cc1)C(=O)Cn1cc(Br)c(=O)[nH]c1=O,-0.9,-4.7
CNCc1cn(Cc2ccccc2)nc1-c1cccc(C)c1,3.5,3.1
OC1(c2ccccc2)CCN(c2nccc(CCC(F)(F)F)n2)C1 (stereo unspecified),3.0,2.0
OC(COCc1ccccc1)CN(Cc1ccccc1)CC1CC(c2ccc(Cl)cc2)=NO1 (stereo unspecified),2.4,2.7
CC(C)(Oc1ccc(C2CC2(Cl)Cl)cc1)C(=O)O (stereo unspecified),22.8&2.9,6.5&-0.7
CCc1ccccc1N1CCN(Cc2c(F)cccc2F)C(C)C1=O (stereo unspecified),14.7,15.0
O=C(/C=C/c1cccs1)N(CCn1cccn1)c1nc2ccccc2s1,13.8,10.4
CC(C)NC(=O)C1(C)CCCN1Cc1cc2ccccc2o1 (stereo unspecified),6.0,4.1
O=C(CCCc1cccs1)Nc1ccc(Cl)cn1,-3.3,-1.3
COc1ccc(C(=O)N2CCN(Cc3cc(=O)c(OCc4ccc(-c5ccccc5C#N)cc4)co3)CC2)cc1OC,9.1,6.4
COC(=O)c1ccc(CN2C(=O)C(C)ON=C2c2ccccn2)o1 (stereo unspecified),0.1,-5.0
CCCC(NC(=O)c1ccc(C(C)=O)cc1)c1ccccc1 (stereo unspecified),-5.2,-13.9
CCCc1nc(C(=O)N2C[C@@H](N)C[C@H]2C(=O)NC(C)C)cs1,3.7,1.5
CCC(=O)Nc1nnc(SCc2cc(=O)c(OC(=O)c3cccc4ccccc34)co2)s1,-1.7,0.2
CC(Nc1ccc(N2CCCC2=O)cc1)C(=O)Nc1ccccc1C(C)C (stereo unspecified),-9.1,-6.9
O=C(NCCNC(=O)C1CCN(C(=O)C2CC2)CC1)c1ccccc1,2.8,24.9
COc1ccc2c(c1)c(C)cc[n+]2Cc1ccccc1,-8.1,-10.9
CC(C)Nc1cc(-c2ccc(S(C)(=O)=O)cc2)ncn1,3.2,-0.1
COc1ccc(COC(=O)N/N=C(/C)CC(=O)Nc2c(C)cc(C)cc2C)cc1,4.2,4.1
CC(C)N(C)C(=O)CN1CCc2c(cccc2NC(=O)Nc2ccccc2)C1,3.7,-0.2

# (continued)
SMILES,NPYLR7 ag,NPYLR7 ag max-min
Cc1ccc(C(=O)N2CCN(c3ccc(-n4cccn4)nn3)CC2)cc1,3.4,3.6
COCCNC(=O)Cn1nc2c(c1NC(=O)Cc1noc3ccccc13)CSC2,-2.5,8.2
O=C(NCCCCn1ccnc1)c1cc(N2CCCC2=O)ccc1F,2.4,0.8
COc1ccc(OC)c(S(=O)(=O)Nc2ccc(NS(=O)(=O)c3ccc4c(c3)CN(C(=O)C(F)(F)F)CC4)cc2)c1,16.1,5.2
O=C(Nc1cnc2n1CCCC2)[C@H]1CCCN1,6.0,5.8
Cc1ccc(-c2nnc(CNCCc3c[nH]c4ccccc34)o2)n1C,11.2,-4.2
CCCc1ccc(S(=O)(=O)Nc2cc(Cl)ccc2Sc2nncn2C)cc1,6.4,5.4
CC1ON=C(c2ccccn2)N(Cc2ccccc2F)C1=O (stereo unspecified),-0.8,-3.0
CCC(C(=O)NCc1cnn2ccccc12)n1cccn1 (stereo unspecified),6.4,5.4
CCc1nc2ccc(C(=O)Nc3ccc(Cl)c(Cl)c3)cn2c1N(C)C=O,1.3,24.5
Cc1ccccc1-n1ncc(C(=O)NCc2ccccn2)c1-c1ccccc1,-0.9,5.2
O=S(=O)(CCN1CCCC1Cc1ccccc1Cl)c1ccccc1 (stereo unspecified),3.4,0.1
CCOC(=O)N1CCN(C(=O)c2cc3ccccc3cc2NC(=O)C(C)C)CC1,13.9,4.5
CCOC(=O)C1=C(C)N(C)C(=O)NC1c1ccc(F)c(F)c1 (stereo unspecified),-14.0,-14.8
Fc1ccccc1OCCN1CCN(c2cc(Cl)ncn2)CC1,0.9,0.2
FC(F)(F)c1nc2ccccc2n1-c1cc(-c2ccccc2)[nH]n1,1.3,-0.3
COc1ccc(CN(C)C(=O)Cc2c(C)nc3nc(N)nn3c2C)cc1F,-0.5,-4.1
Cc1nnc(-c2cc3ccccc3n2CC(=O)Nc2ccccc2)o1,16.3,6.1
c1ccc2[nH]c(-c3cscn3)nc2c1,-1.6&-13.1&-5.3,-4.8&-17.8&-10.7
COc1ccc(CNC(=O)Cn2c(C)cc3nc4sc(C)nn4c(=O)c32)cc1OC,-7.9,-10.1
Cc1ccc2sc(N(Cc3cccnc3)C(=O)c3ccc(S(=O)(=O)N(C)C)cc3)nc2c1C,-2.7,2.5
Cc1ccccc1CN1CCCN(C(=O)CNC(=O)C2c3ccccc3C(=O)N2C2CC2)CC1 (stereo unspecified),-3.1,6.5
O=C(Nc1nc([C@@H]2O[C@H](CO)[C@@H](O)[C@H](O)[C@H]2O)cs1)NC1CCCCC1,19.6,24.4
CCc1nc2ccc(C(=O)N(CC)CCN(C)C)cn2c1N(C)Cc1nccs1,-2.4,-6.7
CC1=C(C(=O)N2CCC(C(=O)Nc3cccc(-c4nnc(C)s4)c3)CC2)OCCO1,-1.0,-2.4

# (further entries)
SMILES,NPYLR7 ag,NPYLR7 ag max-min
COC(=O)c1ncn(Cc2ccc(F)cc2C#N)n1,2.3,1.5
COc1cccc(F)c1-c1ccc(C(O)CN2CCOCC2)cc1 (stereo unspecified),-4.1,-6.8
COc1ccc(CNC(=O)CCn2c(=O)oc3ccccc32)cc1,27.6,18.1
O=C(C1CCCC1)N(CCN1CCOCC1)Cc1c(-c2ccccc2)noc1N1CCCC1,4.3,10.0
Cc1cc2nc(N(CCCN3CCOCC3)C(=O)C3COc4ccccc4O3)sc2cc1C (stereo unspecified),-3.7,-7.1
CC(Sc1nnc(NCCc2ccccc2)s1)C(=O)N1CCCCCC1 (stereo unspecified),7.5,6.4
Cc1ccc(C2=N/C(=C\c3ccccc3C(F)(F)F)C(=O)O2)cc1C,-3.2,-9.0
CCc1nn(-c2cccc(Cl)c2)c(CC)c1C(=O)N1CCN(C(C)=O)CC1,20.9,29.6
NS(=O)(=O)c1ccc(CCC(=O)NCC2(c3ccccc3)CCC2)cc1,-1.7,-2.5
Cc1nsc(N2CCCN(CC(=O)Nc3oc(C)c(C)c3C#N)CC2)n1,2.7,-0.4
O=C(N=C(c1ccccc1)C(Cl)Cl)NC(=C(Cl)Cl)c1ccccc1,-0.7,-1.7
COc1cccc(OC)c1C(=O)N1CCC2(CC1)C(=O)N(CC(=O)NCc1ccc3c(c1)OCO3)CN2c1ccccc1,0.0,13.2
Cc1ccc(C(=O)Nc2c(N)nc(SCC(=O)N3CCc4ccccc43)[nH]c2=O)cc1,-7.5,-2.9
Cc1nc(-n2ccc3nc4ccn(CCC(C)C)c(=O)c4cc3c2=O)n[nH]1,2.3,6.0
CN(Cc1cc(C(C)(C)C)n[nH]1)C(=O)C(C)(C)NC(=O)c1cccs1,4.5,2.6
COc1cccc(-c2cnc3c(NC=O)cc(-c4ccc(O)c(OC)c4)cn23)c1,-3.4,-9.6
O=C(CSc1nnc(CN2CCCC2)o1)NC(=O)NCc1ccco1,5.3,5.9
CN(Cc1nc2ccccc2[nH]1)Cc1nc(-c2ccc3c(c2)OCO3)no1,4.4,-0.2
Cc1cc(OC(=O)c2ccccc2)cc(=O)o1,-3.8,-4.3
CCSc1nnc(SCC(=O)NC23CC4CC(CC(C4)C2)C3)s1,1.3,7.9
COC(=O)[C@H]1[C@H]2C[C@@H]3c4[nH]c5cc(OC)ccc5c4CCN3C[C@H]2C[C@@H](OC(=O)c2cc(OC)c(OC)c(OC)c2)[C@@H]1OC,22.5&5.0&-2.8,0.7&-0.1&-4.7
COc1cc(C)ccc1S(=O)(=O)N1CC[C@H]2CC[C@@H](C1)N2,1.7,-0.7
O=C(NCCNc1cccc2ccccc12)C1CC=CCC1C(=O)N1CCc2c([nH]c3ccccc23)C1 (stereo unspecified),-12.6,-19.4
CN[C@H]1C[C@@H](N)[C@H](O)[C@@H](O[C@@H]2O[C@H](CO)[C@@H]3OC4(O[C@@H]3[C@@H]2O)O[C@H](C(N)CO)[C@H](O)[C@H](O)[C@H]4O)[C@@H]1O (stereo partly specified),-5.8,-10.1
Cc1ccsc1C(=O)Nc1cccc(C#Cc2ccccn2)c1,3.4,3.2

# A draw from above in order of molecular weight, rising:
SMILES,NPYLR7 ag,NPYLR7 ag max-min
Cc1cc(OC(=O)c2ccccc2)cc(=O)o1,-3.8,-4.3
COC(=O)c1ncn(Cc2ccc(F)cc2C#N)n1,2.3,1.5
Cc1ccsc1C(=O)Nc1cccc(C#Cc2ccccn2)c1,3.4,3.2
COc1ccc(CNC(=O)CCn2c(=O)oc3ccccc32)cc1,27.6,18.1
COc1cccc(F)c1-c1ccc(C(O)CN2CCOCC2)cc1 (stereo unspecified),-4.1,-6.8
Cc1ccc(C2=N/C(=C\c3ccccc3C(F)(F)F)C(=O)O2)cc1C,-3.2,-9.0
CN(Cc1cc(C(C)(C)C)n[nH]1)C(=O)C(C)(C)NC(=O)c1cccs1,4.5,2.6
CN(Cc1nc2ccccc2[nH]1)Cc1nc(-c2ccc3c(c2)OCO3)no1,4.4,-0.2
Cc1nc(-n2ccc3nc4ccn(CCC(C)C)c(=O)c4cc3c2=O)n[nH]1,2.3,6.0
O=C(CSc1nnc(CN2CCCC2)o1)NC(=O)NCc1ccco1,5.3,5.9
CCSc1nnc(SCC(=O)NC23CC4CC(CC(C4)C2)C3)s1,1.3,7.9
NS(=O)(=O)c1ccc(CCC(=O)NCC2(c3ccccc3)CCC2)cc1,-1.7,-2.5
Cc1nsc(N2CCCN(CC(=O)Nc3oc(C)c(C)c3C#N)CC2)n1,2.7,-0.4
O=C(Nc1nc([C@@H]2O[C@H](CO)[C@@H](O)[C@H](O)[C@H]2O)cs1)NC1CCCCC1,19.6,24.4
COc1cccc(-c2cnc3c(NC=O)cc(-c4ccc(O)c(OC)c4)cn23)c1,-3.4,-9.6
CC(Sc1nnc(NCCc2ccccc2)s1)C(=O)N1CCCCCC1 (stereo unspecified),7.5,6.4
O=C(N=C(c1ccccc1)C(Cl)Cl)NC(=C(Cl)Cl)c1ccccc1,-0.7,-1.7
CCc1nc2ccc(C(=O)N(CC)CCN(C)C)cn2c1N(C)Cc1nccs1,-2.4,-6.7
CC1=C(C(=O)N2CCC(C(=O)Nc3cccc(-c4nnc(C)s4)c3)CC2)OCCO1,-1.0,-2.4
O=C(C1CCCC1)N(CCN1CCOCC1)Cc1c(-c2ccccc2)noc1N1CCCC1,4.3,10.0
Cc1ccccc1CN1CCCN(C(=O)CNC(=O)C2c3ccccc3C(=O)N2C2CC2)CC1 (stereo unspecified),-3.1,6.5
Cc1cc2nc(N(CCCN3CCOCC3)C(=O)C3COc4ccccc4O3)sc2cc1C (stereo unspecified),-3.7,-7.1
Cc1ccc2sc(N(Cc3cccnc3)C(=O)c3ccc(S(=O)(=O)N(C)C)cc3)nc2c1C,-2.7,2.5
O=C(NCCNc1cccc2ccccc12)C1CC=CCC1C(=O)N1CCc2c([nH]c3ccccc23)C1 (stereo unspecified),-12.6,-19.4
CN[C@H]1C[C@@H](N)[C@H](O)[C@@H](O[C@@H]2O[C@H](CO)[C@@H]3OC4(O[C@@H]3[C@@H]2O)O[C@H](C(N)CO)[C@H](O)[C@H](O)[C@H]4O)[C@@H]1O (stereo partly specified),-5.8,-10.1
COc1cccc(OC)c1C(=O)N1CCC2(CC1)C(=O)N(CC(=O)NCc1ccc3c(c1)OCO3)CN2c1ccccc1,0.0,13.2
COC(=O)[C@H]1[C@H]2C[C@@H]3c4[nH]c5cc(OC)ccc5c4CCN3C[C@H]2C[C@@H](OC(=O)c2cc(OC)c(OC)c(OC)c2)[C@@H]1OC,22.5&5.0&-2.8,0.7&-0.1&-4.7

# (continued)
SMILES,NPYLR7 ag,NPYLR7 ag max-min
CCCc1nn(C)c2c(=O)[nH]c(-c3cc(S(=O)(=O)N4CCN(C)CC4)ccc3OCC)nc12,-8.1&-6.1,-15.0&-4.1
CC1CCN(CCNC(=O)c2ccc(Br)cc2)CC1,0.2,-2.2
Cc1cccc(CNC(=O)CCNc2ccccc2)c1,-0.4,-0.5
C=c1cc(C)n(CC(=O)Nc2ccccc2)c(=O)c1=C1N=C(c2ccc(OC)cc2)NO1,-2.1,-5.5
Cc1cc(NC(=O)CN(C)CC(=O)Nc2cccc(F)c2)n(-c2ccccc2)n1,1.3,-2.9
Cc1cc(C)cc(-n2cc(C(=O)N3CCC(NC(=O)c4cccnc4)CC3)nn2)c1,-8.1,-10.0
CN1CCc2c(sc(NC(=O)CN3C(=O)c4ccccc4C3=O)c2-c2nc3ccccc3s2)C1,2.0,0.2
C=CCN=c1scc(-c2ccco2)n1N=Cc1cc(OC)ccc1O,3.8,1.1
CCOC(=O)c1c(NC(=O)c2cccnc2OCC)sc2c1CCCS2,15.1,10.6
COc1ccc(CCNC(=O)CN(Cc2ccccc2)c2nc(Cc3ccc(C)cc3)ns2)cc1OC,-9.3,-12.5
COCCCNc1ncnc2sc(C(=O)NCC(C)C)c(C)c12,24.5,13.0
CC(C)(C)c1ccc(C(=O)NCc2nnnn2-c2ccc(Cl)cc2)cc1,-3.7,-4.4
CC1ON=C(c2ccc(N(C)C)cc2)NC1=O (stereo unspecified),17.6,10.2
Cc1cc2c(cc1-c1c(-c3ccccc3)ncn1CCc1cnc[nH]1)OCO2,9.5,7.8
Cc1cc(C(=O)N2CC[C@H](O)[C@@H](O)C2)ccc1-n1cccc1,22.0,15.0
COC(=O)C(c1ccc(F)cc1Cl)C1C=CC(NC(=O)c2cccc(OC(F)(F)F)c2)C1 (stereo unspecified),4.8,2.1
CCc1noc(CC)c1CC(=O)OC1CCCCC1,0.8,-0.6
